Assay outcomes deposited in PubChem by several laboratories.
RN4220 kill: growth inhibition of S. aureus RN4220, primary screen, OD600; 16 h; inhibition, % (concentration not given with the values); 330,000 tested, 0.33% active;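 active means z-score of -3 or lower and OD600 up to 0.18 on both plates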;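 further: plate controls were untreated cells for no effect and reference antibiotic for full effect; stock transfer was 100 nL into about 80 µL; one replicate is shown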
Sa ugtP lethal: growth inhibition of ugtP-null S. aureus, primary screen, RN4220 ugtP deletion, OD600; growth inhibition, % (no concentration beside the values); 16 h; some inactives read as strong as hits; 330,000 tested, 0.54% active;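 active means z-score under -3 and OD600 up to 0.15 on both plates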;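 further: plate controls were untreated wells for no effect and antibiotic for full effect; wells of about 80 µL received 100 nL stock; the first replicate is given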
Bead autofluor: compound fluorescence in toxin protease inhibitor counterscreen; compound autofluorescence counterscreen, microsphere flow cytometry; active compounds read high; fluorescence intensity (concentration not given with the values); 360,000 tested, 3.1% active; AID 624483;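 active means at least 3 SD above the mean of all compounds, about 16000 in these data; inconclusive means too few beads counted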;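 further: 100 nL of 1 mM stock went into each well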
Mtb hypoxia rep: PubChem AID 1159583; 300,000 tested, 0.1% active; fluorescence inhibition, % (test concentration not listed); M. tuberculosis hypoxia-regulated fluorescent reporter, fluorescence;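 active means 35 to 45% if threefold the growth effect, above 45% if 1.5-fold the growth effect; inactive means the rest, general growth blockers included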;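 further: wells of about 50 µL received 100 nL stock; 0% = vehicle wells and 100% = reference inhibitor wells; whole bacteria with a GFP reporter of the hypoxia response; strong numbers were not always called active; many hits fall short of the cut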
BJeLR viability: MLPCN primary cell-based screen for lethality selective to Ras in HRASV12 cells; inhibition, % (test concentration not listed); BJeLR (HRASV12) viability, CellTiter-Glo ATP luminescence, 48 h; reference of the scale not given here; AID 1554, 2009; 300,000 tested, 0.17% active;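 active means replicate mean above 50%; inconclusive means above 50% but judged a plate artefact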;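 further: 50 nL library stock added to about 25 µL; numbers are from one replicate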
PrP UTR inh: inhibition of PrP 5' UTR reporter expression | cell-based PrP 5' UTR mRNA reporter, plate reader | inhibition, % (no concentration beside the values) | 340,000 tested, 0.35% active | AID 488862, 2010;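 active means every replicate at 50% or more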;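 further: 0 = median of the neutral control wells; tested in H4 reporter cells; numbers are from one replicate; inactives centre near -14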
Mtb hypoxia rep growth: also measured in Mtb hypoxia rep; calls as there; growth inhibition, %; measured here: M. tuberculosis growth (absorbance);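 0% = vehicle and 100% = reference antibiotic; read after six days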
Starred values were filed as active, the others as inactive; u = inconclusive; x = not tested or not shown.

SMILES | RN4220 kill | Sa ugtP lethal | Bead autofluor | Mtb hypoxia rep | Mtb hypoxia rep growth | BJeLR viability | PrP UTR inh
COc1ccc(NS(=O)(=O)c2cc(NC(=O)C3CCCCC3)ccc2N2CCOCC2)cc1 | 5.5 | 6 | 4384 | 0 | 10 | -4 | -20
Cc1ccc(CCN2CC(C(=O)NCCN3CCCCCC3)CC2=O)cc1 (stereo not drawn) | 1.8 | -2 | 3765 | 17 | 14 | -1 | -3
COc1ccc(OC)c(-c2nnc3n2N=C(c2ccc(OC)c(OCC4CC4)c2)CS3)c1 | 13 | -7 | 4036 | -1 | 14 | x | 67*
CC(C)c1csc(CN2CCN(Cc3ccc(F)c(F)c3)C(CCO)C2)n1 (stereo not drawn) | 4.8 | 11 | 5329 | 9 | 2 | 3 | -11
COc1ccc(CCNC(=O)c2[nH]c(C)c(C(C)=O)c2C)cc1 | 3.6 | 12 | 4762 | x | x | -3 | 2
O=C1N=c2ccccc2=C1c1sc(=S)n(-c2ccc(O)cc2)c1O | 8.2 | -4 | 4706 | 15 | 11 | 13 | -12
Cc1c(C(=O)/C=C/N(C)C)nnn1-c1ccc(Cl)cc1Cl | -3.0 | -2 | 4191 | -1 | -5 | 6 | -24
O=C(COC(=O)C1COc2ccccc2O1)Nc1cccc(Cl)c1 (stereo not drawn) | 5.1 | 9 | 3464 | 10 | 1 | x | -42
COc1ccc(C(=O)NC2CCN(CC(=O)Nc3cccc(OC)c3)CC2)cc1 | 3.0 | 13 | x | -1 | -4 | -6 | -10
CCCn1c2ccccc2c2nnc(SC(CC)C(=O)Nc3sc4c(c3C#N)CCCC4)nc21 (stereo not drawn) | 0.4 | -7 | 3221 | -1 | -3 | -8 | -7
COC(=O)c1ccc(CN2CCC(CO)(Cc3ccccc3Cl)CC2)cc1 | 2.1 | 13 | 3583 | 7 | 0 | 3 | -25
Cc1ccc(C(=O)C[n+]2ccccc2C)cc1[N+](=O)[O-] | 2.2 | 4 | 4186 | -7 | -1 | -6 | -17
CCc1cccc(NC(=O)NC2CCCCC2)c1 | 5.3 | -5 | 3212 | 3 | 8 | -1 | -9
O=C(NCCc1ccc(Cl)cc1)c1cc(=O)[nH]c2ccccc12 | 1.6 | 3 | 3091 | -10 | -2 | -5 | -4
O=S(=O)(Cc1ccccc1)N1CCCCCC1 | 6.0 | 1 | 8256 | 3 | 1 | 3 | -3
CCN1CCSc2ccc(C(=O)NCc3cccc(F)c3)cc21 | -5.6 | 3 | 5540 | 4 | 3 | -1 | -15
CC(CC(=O)OCC(=O)NCc1ccc(Cl)cc1)c1ccccc1 (stereo not drawn) | -6.0 | -4 | 3437 | -9 | -4 | x | -23
Cc1cc(C(=O)CSc2nnc(-c3ccccc3)o2)c(C)n1CC1COc2ccccc2O1 (stereo not drawn) | 2.8 | -25 | 3756 | -3 | 8 | 5 | -11
COc1ccc(NC(=O)Cc2cccc(F)c2)cc1S(=O)(=O)Nc1ccccc1Cl | -1.9 | 4 | 4962 | 14 | 5 | 15 | -10
CC1C(=NO)CC(c2ccco2)NC1c1ccco1 (stereo not drawn) | 2.8 | 2 | x | 7 | 3 | x | x
CC(=O)NNS(=O)(=O)c1ccccc1[N+](=O)[O-] | 5.1 | -3 | 2692 | 4 | 6 | -7 | -19
COc1ccc(C(=O)OCC(=O)Nc2ccc(Cl)c(C(F)(F)F)c2)c(OC)c1OC | 22 | -13 | 2233 | 5 | 8 | -4 | -24
Cc1ccc(C(=O)COC(=O)CCCC(=O)Nc2cc(C(F)(F)F)ccc2Cl)cc1C | 2.9 | 4 | 2670 | 3 | 4 | -9 | -36
Cc1nc2ccccc2n1CC(=O)NCc1ccccc1 | 4.3 | 1 | 22747* | 4 | 6 | 12 | -35

Only Bead autofluor, Mtb hypoxia rep and Sa ugtP lethal, for some of the entries so far:
| Compound | Bead autofluor | Mtb hypoxia rep | Sa ugtP lethal |
| --- | --- | --- | --- |
| CC(=O)NNS(=O)(=O)c1ccccc1[N+](=O)[O-] | 2692 | 4 | -3 |
| COc1ccc(C(=O)OCC(=O)Nc2ccc(Cl)c(C(F)(F)F)c2)c(OC)c1OC | 2233 | 5 | -13 |

The results go on:
SMILES | RN4220 kill | Sa ugtP lethal | Bead autofluor | Mtb hypoxia rep | Mtb hypoxia rep growth | BJeLR viability | PrP UTR inh
COc1cccc(CC(NC(C)=O)C(=O)NC2CCN(C(=O)NCc3ccccc3)CC2)c1 (stereo not drawn) | 0.6 | 1 | 6299 | -4 | -4 | -16 | -7
O=C(COC(=O)C1=COCCO1)NCCCc1ccccc1 | -12 | -4 | 3129 | -3 | -5 | -7 | -7
CC(=O)N1CCN(CCN=Cc2c(O)n(-c3ccc(F)cc3)c(=S)[nH]c2=O)CC1 | -4.1 | -4 | 3750 | 17 | 0 | -6 | -18
COc1ccc(N(C)S(=O)(=O)c2cccc(C(=O)Nc3nnc(C4CC4)s3)c2)cc1 | 4.7 | 13 | 4659 | -1 | 1 | -10 | -21
Cc1ccc(Cl)cc1N1CCN(S(=O)(=O)c2ccc(-c3ccc(=O)[nH]n3)o2)CC1 | -5.5 | -18 | 5452 | -9 | 4 | -2 | -8
O=C(NN=Cc1ccc(OC(=O)c2ccco2)cc1)c1ccccn1 | 13 | 4 | x | 14 | 4 | x | x
COc1ccc(C2c3c(ncn(CCCN4CCOCC4)c3=N)Oc3ccc4ccccc4c32)cc1OC (stereo not drawn) | -8.2 | -5 | u | 9 | 5 | 0 | -17
Cc1nccn1Cc1cccc2ccccc12 | 3.2 | 1 | 10655 | 6 | -6 | -4 | -20
COC(CNC(=O)c1c[nH]c2ccc(S(=O)(=O)N(C)c3ccc(F)cc3)cc2c1=O)OC | 2.2 | 5 | 4274 | 3 | 6 | -7 | -19
COc1ccc(CCNc2cc(C)nc3c(-c4ccccc4)cnn23)cc1OC | 3.5 | -4 | 2516 | 17 | 10 | 11 | -9
CN(C)S(=O)(=O)Oc1ccsc1C(=O)Nc1ccc(Cl)cc1 | -2.4 | -7 | 4535 | -1 | 7 | 13 | -13
N/C(=N\OC(=O)c1ccc2c(c1)OCO2)c1ccc(Cl)cc1 | 0.0 | 3 | 5987 | 17 | 5 | 13 | -73
CCCSc1nnc(-c2cccc(S(=O)(=O)N(C)C)c2)n1-c1cc(OC)ccc1OC | 7.1 | -2 | 11411 | 4 | 4 | -11 | -27
Cc1[nH][nH]c(=O)c1C(c1ccc(-c2ccc(F)cc2)o1)c1c(C)[nH][nH]c1=O | 0.2 | 4 | 2394 | -1 | 4 | 2 | -34
Cc1noc(C)c1NC(=O)Nc1ccc2c(c1)C(=O)N(C(C)CO)CC(C)C(CN(C)S(C)(=O)=O)O2 (stereo not drawn) | 6.8 | -1 | x | 18 | 10 | x | x
Fc1ccc(NC(=S)N2CCn3cccc3C2c2cccnc2)cc1 (stereo not drawn) | 3.0 | 5 | 4739 | -8 | -14 | 1 | -23
CCCCC1CNCCN1CCCc1cc(OC)c(OC)c(OC)c1 (stereo not drawn) | 3.0 | -2 | x | 3 | 2 | x | x
COC(=O)c1sccc1NC(=S)Nc1ccc(F)cc1F | 1.2 | 1 | 4356 | -4 | 8 | 1 | -15
COc1ccc(-c2nc(C#N)c(NCc3ccccc3Cl)o2)cc1OC | -0.6 | -10 | 9497 | -10 | 6 | 2 | -26
CCN1CC2CCCC3(C1)C(=O)NC1(CCCCC1)N=C23 (stereo not drawn) | 5.1 | -7 | 21486* | 1 | 4 | -5 | -47
O=C(C1CCCCC1)N1CCN(S(=O)(=O)c2ccc(Br)cc2)CC1 | -0.7 | 1 | 2368 | x | x | 7 | -10
CC1CCN(C(=O)COC(=O)Cn2cnc3ccccc32)CC1 | 1.2 | 3 | 3449 | 1 | 2 | x | 0
C/C(=N\NC(N)=O)c1ccc(Cl)s1 | x | x | 3880 | x | x | -2 | -28
CCn1cc(CN2CCC(C(=O)Nc3ccc(Oc4ccccc4)nc3)CC2)cn1 | 0.8 | 1 | 6164 | 4 | -1 | -2 | 0
O=c1c(F)cn(C2CCCO2)c(=O)n1Cc1ccccc1F (stereo not drawn) | 5.1 | 4 | 5256 | 10 | 6 | -6 | -21
CCOc1cc(/C=C2/C(=N)N3OC(C)=CC3=NC2=O)ccc1OC(=O)c1ccco1 | 3.3 | 2 | 1961 | -3 | 1 | -4 | -12
CCOC(=O)CCCNC(=O)CCNC(=O)c1ccc(OC)cc1 | 8.1 | 6 | 10099 | 10 | 1 | -7 | -15
O=C(COC(=O)CSc1ccc([N+](=O)[O-])cc1)NCCC1=CCCCC1 | 5.7 | 10 | x | 6 | -8 | x | -15
O=C(NCc1ccccc1)NCc1cccs1 | 6.9 | 15 | 2570 | x | x | 4 | -8
CCOC(=O)c1c(NC(=O)C2CCN(S(=O)(=O)c3ccc(Cl)cc3)CC2)sc2c1CCCC2 | -3.2 | 5 | 2728 | 0 | -12 | -7 | -11
Nc1nnc(C(=O)c2ccccc2N)s1 | 0.5 | -4 | 21252* | 9 | 3 | 5 | -13
COc1cccc(NC(=O)CCN2CCN(c3ccccc3F)CC2)c1 | 5.2 | -1 | 4459 | 9 | 4 | 5 | -32
COc1ccc(C2c3[nH]c4ccccc4c3C[C@H]3C(=O)N(c4ccccc4C(=O)N4CCC(C(=O)O)CC4)C(=O)N23)cc1 (stereo partly drawn) | 6.7 | 13 | 4998 | x | x | -7 | -16
Cc1cccc(C2C3C(=O)N(Cc4ccccc4)C(=O)C3[C@]3(CC(C)C)C(=O)N(c4cccc(Cl)c4)C(=O)N23)c1 (stereo partly drawn) | 6.8 | -15 | x | 0 | 7 | x | x
Cc1ccc(C(=O)N(CC(C)C)c2c(N)n(Cc3ccccc3)c(=O)[nH]c2=O)o1 | 4.2 | 7 | 5539 | 6 | 2 | -11 | -6
COc1ccccc1C(C#N)N1N=C(C)CC1c1ccccc1 (stereo not drawn) | 4.5 | 6 | 4432 | 2 | 2 | 1 | -20
COc1ccc(-c2cc(C(=O)NCc3cn(C)nc3C)c3ccccc3n2)cc1OC | 3.1 | 9 | 2129 | -12 | 4 | -8 | -18
O=C(Nc1nnc(/C=C/c2ccccc2)s1)c1ccco1 | 5.8 | -5 | 4413 | 6 | 0 | -6 | -9
CCC12CN3CC(CC)(CN(C1)C3c1ccccc1Cl)C2O (stereo not drawn) | 10 | -3 | 4277 | 14 | 1 | -6 | -3
CCCc1nc(-c2ccccc2)c(-c2ccc(OC)c(OC)c2)c(=O)[nH]1 | 1.6 | -2 | 4043 | -4 | -13 | -11 | -4
CCOC(=O)C1CCN(C(=O)COc2ccc(Br)cc2Br)CC1 | 1.2 | -1 | 4393 | 1 | 1 | -4 | -20
CN(Cc1ccccc1)C(=O)c1ccc(NC(=O)Cc2cccc(NC(=O)C3CCN(C(=O)C4CCCCC4)CC3)c2)cc1 | 7.0 | -7 | 2918 | 10 | 8 | x | -11
CCS(=O)(=O)N1CCCC(C(=O)NCCN(C)Cc2ccccc2)C1 (stereo not drawn) | -10 | -7 | 2819 | 9 | 6 | 1 | 1
O=C(N[C@H]1CC1c1ccccc1)c1ccc([N+](=O)[O-])cc1 (stereo partly drawn) | 2.3 | 10 | 4825 | 5 | 18 | -6 | -80
O=C(COc1ccc(Cl)cc1)N/N=C/c1cccc2cccnc12 | x | x | 4072 | x | x | -2 | -8
COc1cc(S(=O)(=O)N2CCN(c3ccccn3)CC2)ccc1Br | -0.7 | 8 | 4024 | 7 | 2 | 1 | -37
CCN(CC)S(=O)(=O)c1ccc2c(c1)c(=O)c(C(=O)N1CCOCC1)cn2C | 0.5 | 0 | 9310 | 5 | 2 | 3 | -29
CCN(CC)c1cc(C)c2cc(NC(=O)c3ccc(Br)o3)ccc2n1 | 7.5 | 14 | 9308 | 15 | 10 | -1 | -41

Whole records, quoted from the list:
COc1cc(S(=O)(=O)N2CCN(c3ccccn3)CC2)ccc1Br is listed with RN4220 kill = -0.7; Sa ugtP lethal = 8; Bead autofluor = 4024; Mtb hypoxia rep = 7; Mtb hypoxia rep growth = 2; BJeLR viability = 1; PrP UTR inh = -37
CCS(=O)(=O)N1CCCC(C(=O)NCCN(C)Cc2ccccc2)C1 (stereo not drawn) is listed with RN4220 kill = -10; Sa ugtP lethal = -7; Bead autofluor = 2819; Mtb hypoxia rep = 9; Mtb hypoxia rep growth = 6; BJeLR viability = 1; PrP UTR inh = 1
CCCc1nc(-c2ccccc2)c(-c2ccc(OC)c(OC)c2)c(=O)[nH]1 is listed with RN4220 kill = 1.6; Sa ugtP lethal = -2; Bead autofluor = 4043; Mtb hypoxia rep = -4; Mtb hypoxia rep growth = -13; BJeLR viability = -11; PrP UTR inh = -4
